# nsP2pro inh = blocks chikungunya virus nsP2 protease peptide cleavage | Q8JUX6 | FRET peptide cleavage, nsP2pro, fluorescence 1 h | Potency, µM (titrated, usually from 24.9 µM), inactives show top-dose activity change, negative = inhibition, hits mostly inhibitors | 1.1% of 31,000 active | AID 1964107; active means well fitted inhibition curve with a large enough effect; inconclusive means small, poorly fitted or top-dose-only effect; inactive means no such curve, though single readings can be large or run the other way; note: nearly all actives have a fitted effect of over 60% in size; a reference inhibitor and vehicle were the controls
# * = called active by the depositor; i = inactive; ? = inconclusive; [ ] = dose if it differs, or a comment. % is set by controls: 0 for no effect and ±100 for the full control effect; potency is the fitted concentration of half-maximal effect. A portion of the library; rates above refer to the full screens.
SMILES,nsP2pro inh
Cc1ccc(C(=O)Nc2ccc3oc(-c4cccnc4)nc3c2)c(Cl)c1,-30.0%
CC(C)(O)c1ccc2c(c1)C(=O)CC1[C@](C)(CO)CCC[C@]21C (some centres not stated),153.7%[activator]
COc1ccc(-n2c(SCC(=O)N3CCCc4ccccc43)nc3c([nH]c4ccccc43)c2=O)cc1,-9.7%
O=C1CCCN1CCCN1C(=O)[C@H]2CN(Cc3ccc(Cl)cc3)C[C@H]2C1=O,-20.6%
CCCCNc1nc(C)nc2c1nc(-c1ccccc1)n2C(C)CCCN(CC)CC (configuration not stated),-0.1%
Fc1ccc(C(Nc2ccc(Cl)c(C(F)(F)F)c2)c2nnc(-c3ccccc3)o2)cc1 (configuration not stated),20.2%
CCC(C)C(=O)O[C@H]1[C@H](O)[C@@]2(COC(C)=O)C(CC1(C)C)C1=CCC3[C@@]4(C)CC[C@H](O[C@@H]5O[C@H](C(=O)O)[C@@H](O)[C@H](O)[C@H]5O)[C@@](C)(CO)C4CC[C@@]3(C)[C@]1(C)C[C@@H]2O (some centres not stated),?
O=C(c1cccc(OC(F)F)c1)N1CC[C@H](N2CCOCC2)[C@H](CCCO)C1,-7.2%
CC(C)N1CCc2nc(SCC(=O)Nc3cccc(F)c3)[nH]c(=O)c2C1,?
Cc1oc2c(c1C(=O)N1CCN(C3CCCC3)CC1)CN(Cc1cccc(F)c1)CC2,-14.0%
O=c1[nH]c(C2CCCN([S+](=O)([O-])c3cccc(C(F)(F)F)c3)C2)nn1-c1ccccn1 (configuration not stated),i
O=C(CSc1nccn1Cc1ccc(Cl)cc1)NCc1ccccc1,-0.9%
O=[N+]([O-])c1ccc(S(=O)(=O)N2CCN(c3ccnc4cc(Cl)ccc34)CC2)c([N+](=O)[O-])c1,?
COc1cc(C2c3c(oc4ccccc4c3=O)C(=O)N2Cc2ccccc2Cl)ccc1O (configuration not stated),-20.3%
C=CCCCCCCCCC(=O)O,4.3µM*
O=C1NC(=NC2CCCCC2)C2(CCN(CC3CCCCC3)C2)N1c1cccnc1 (configuration not stated),-14.7%
O=c1ncn(Cc2ccccc2)c2ccc(-c3ccoc3)nc12,?
COc1cccc(N2CCN(C(=O)CCn3nc(C)c(S(=O)(=O)N4CCCC4)c3C)CC2)c1,-3.0%
COc1cc(NC(=O)C(Cc2ccccc2)NS(=O)(=O)c2cccs2)cc(OC)c1 (configuration not stated),-11.1%
O=C(CCC(=O)N1Cc2ccccc2Oc2ncccc21)NCc1ccccc1Cl,-18.4%
O=C(c1ccc(C2CCCNC2)cc1)N1CCN(c2ccncc2)CC1 (configuration not stated),i
CC(C)(C)C(=O)OCc1cc(=O)n2nc(C3CC3)sc2n1,2.2%
CCCc1noc(-c2ccc(N3CCCCC3)c([N+](=O)[O-])c2)n1,-24.7%
COc1cccc(C2c3c(ncn(-c4ccccc4OC)c3=N)Oc3ccc4ccccc4c32)c1 (configuration not stated),1.0%
O=C(Nc1ccc(=O)n2c1[C@@H]1C[C@@H](CN(C(=O)COc3ccccc3)C1)C2)c1ccccc1,-0.1%

# Looked up one by one from above, six records:
SMILES,nsP2pro inh
Cc1oc2c(c1C(=O)N1CCN(C3CCCC3)CC1)CN(Cc1cccc(F)c1)CC2,-14.0%
CCCCNc1nc(C)nc2c1nc(-c1ccccc1)n2C(C)CCCN(CC)CC (configuration not stated),-0.1%
COc1cc(NC(=O)C(Cc2ccccc2)NS(=O)(=O)c2cccs2)cc(OC)c1 (configuration not stated),-11.1%
Fc1ccc(C(Nc2ccc(Cl)c(C(F)(F)F)c2)c2nnc(-c3ccccc3)o2)cc1 (configuration not stated),20.2%
Cc1ccc(C(=O)Nc2ccc3oc(-c4cccnc4)nc3c2)c(Cl)c1,-30.0%
CC(C)(C)C(=O)OCc1cc(=O)n2nc(C3CC3)sc2n1,2.2%

# Remaining list, next part.
SMILES,nsP2pro inh
OC[C@@H]1O[C@H](CNCc2cccc(Cl)c2)[C@H](N2CCN(c3ccccn3)CC2)[C@@H]1O,3.8%
Cc1ccc(CNC(=O)c2ccc(Cn3c(=O)c4ccccc4n(CC(=O)Nc4ccc(C)cc4C)c3=O)cc2)cc1,-18.0%
O=[N+]([O-])c1ccc(CNc2ccc([S+](=O)([O-])Nc3nccs3)cc2)c(O)c1,i
CCCC(CCC)C(=O)OC1C[C@H]2CC[C@@H](C1)[N+]2(C)C (some centres not stated),?
C[S+](=O)([O-])N1CC2(CCCN2CC2CCCCC2)Cc2ccccc21 (configuration not stated),i
CCNC(=O)N1CCCC(Cc2noc(-c3ccccc3)n2)C1 (configuration not stated),2.0%
O=C(O)CCCNc1cc(N2CCN(C3CCCCC3)CC2)c2noc3c2c1C(=O)c1ccccc1-3,74.9%[activator]
CCCS(=O)(=O)N1CCCCC1c1nc(-c2cnccn2)n[nH]1 (configuration not stated),2.7%
Cn1cc(C(=O)NC2CC(c3cc(N4CCOCC4)ncn3)C2)cn1 (configuration not stated),4.4%
N#Cc1c(-c2ccc(Cl)cc2)no[n+]1[O-],i
CCCCCCCCCCCCCC(=O)OCC(COP(=O)([O-])OCC[N+](C)(C)C)OC(=O)CCCCCCCCCCCCC (configuration not stated),-1.1%
COc1ccc(-c2ccnc(N[C@H]3CO[C@H]4[C@@H]3OC[C@@H]4NC(=O)Nc3ccc(C(C)=O)cc3)n2)cc1,i
Cc1cc2c(s1)c1cnn(Cc3ccc(F)cc3)c(=O)c1n2C,i
Nc1nc(=O)n([C@@H]2CS[C@H](CO)O2)cc1F,?
Cc1nc2ccc(C(=O)NCc3cc4n(n3)CCN(C(=O)N(C)C)C4)cc2o1,i
CC/C=C/C(O)C(O)C1=C(C)C(=O)C2(O1)C(=O)NC(OC)(C(=O)c1ccccc1)C2O (configuration not stated),-2.8%[10 µM]
O=C(NCc1ccccc1)C1COC2(CCN(C(=O)c3cccs3)CC2)N1C(=O)c1ccco1 (configuration not stated),i
C[C@@H]1O[C@@H](O[C@H]2[C@H](OC(=O)[C@]34CCC(C)(C)C[C@H]3C3=CCC5[C@@]6(C)C[C@H](O)[C@H](O[C@@H]7O[C@H](CO[C@@H]8OC[C@H](O)[C@H](O)[C@H]8O)[C@@H](O)[C@H](O)[C@H]7O)C(C)(C)C6CC[C@@]5(C)[C@]3(C)C[C@H]4O)OC[C@@H](O)[C@@H]2O)[C@H](O)[C@H](O[C@@H]2OC[C@](O)(CO)[C@H]2O)[C@H]1O[C@@H]1OC[C@H](O)[C@H](O[C@@H]2OC[C@@H](O)[C@H](O)[C@H]2O)[C@H]1O (some centres not stated),?
Cc1ccc(-c2nonc2NC(=O)c2ccco2)cc1C,-2.3%
Cc1ccc(CNC(=O)c2c(Nc3c(C)cccc3C)sc(C(=O)c3ccccc3)c2N)cc1,-6.8%
Cc1c(Cl)cccc1NC(=O)Cn1nc(C)c2sc3ccccc3c2c1=O,-20.3%
CCN(c1cccc(C)c1)S(=O)(=O)c1ccc(N2CCCCS2(=O)=O)cc1,-23.5%
CC(=O)OC[C@@H]1O[C@@H](n2ccc(=O)[nH]c2=O)[C@H](OC(C)=O)[C@H]1OC(C)=O,9.1%
COC(=O)COc1ccc(CC2C(=O)NCCc3ccccc3OCC(=O)N2C)cc1 (configuration not stated),-2.9%
CCc1ccc(NC(=O)Cn2c(=O)n(Cc3ccco3)c(=O)c3cccnc32)cc1,-14.6%

# Continuation:
SMILES,nsP2pro inh
O=C(c1ccc(F)cc1)N1CCC(N2CCCCCC2=O)CC1,i
COc1ccc(N2CCOC3CCN(Cc4ccc(C(C)C)cc4)CC3C2=O)cc1 (configuration not stated),-4.2%[39.2 µM]
CCc1nc2c(c(-c3ccc(Cl)cc3)n1)CCN(Cc1ccnn1C)CC2,-7.4%
CC(C)(C)NCC(O)c1ccc(O)c(CO)c1 (configuration not stated),-4.8%
C=C1C(OC2OCC(O)C(O)C2O)CC2C(C)(C)C(O)CCC2(C)C1CC/C(C)=C\CO (configuration not stated),16.3%[10 µM]
CC(C)N(Cc1ccccc1)C(=O)CN1C(=O)CSc2ccc(S(=O)(=O)N3CCCC3)cc21,-12.9%
CC(C)(Sc1ccc(CCN(CCCCC2CCCCC2)C(=O)NC2CCCCC2)cc1)C(=O)O,41.1%[activator]
Cn1c(=O)n(C)c2cc(N3CCOCC3)c(NS(=O)(=O)c3ccc(Cl)cc3)cc21,-18.9%
COCCN1CCCC2(CCN(C(=O)CN3C(=O)CNC3=O)C2)C1=O (configuration not stated),1.7%
CCOC(=O)c1ccc(NC(=O)Cn2cnc(S(=O)(=O)N3CCCC3)c2)cc1,-20.2%
Cc1c(C)c(NCC(=O)N(C)C2CCN(Cc3ccc(C(N)=O)cc3)CC2)c(C)c(C)c1N,-2.1%
Cc1cc(C)nc(NC(=S)N2CCN(c3cccc(C(F)(F)F)n3)CC2)c1,-34.8%
Cc1nc(N2CCOCC2)c2nc(-c3ccccc3)n(CCCN(C)C)c2n1,-7.9%
Cc1ccc2nc(NCc3ccccc3)c3nncn3c2c1,-24.8%
O=C(NCc1ccccc1Cl)c1ccc(-n2cnc3cccnc32)cc1,-13.7%
NS(=O)(=O)c1cc2c(cc1Cl)NC(CC1CCCC1)NS2(=O)=O (configuration not stated),-3.0%
CCCc1cc(=O)[nH]c2nnc(SC(C)CC)n12 (configuration not stated),-15.9%
COCC(=O)NC[C@H]1C[C@@H]2CCN1C[C@@H]2CN1CCCCC1,i
Cn1ccnc1C(O)c1cc2n(n1)CCN(S(=O)(=O)C1CC1)C2 (configuration not stated),i
O=C(NC1CC1)[C@@H]1C[C@H](Oc2cccnc2)CN1C(=O)c1ccccn1,-33.6%
CC(=O)c1ccc2c(c1)N(CCCN1CCC(CCO)CC1)c1ccccc1S2,5.0%
c1ccc(CNCc2ccc(CN3CCCNCCNCCCNCC3)cc2)nc1,92.2%[activator]
C/C(=N\N=C(N)N)c1cc(NC(=O)CCCCCCCCC(=O)Nc2cc(/C(C)=N/N=C(N)N)cc(/C(C)=N/N=C(N)N)c2)cc(/C(C)=N/N=C(N)N)c1,5.56µM*
Cc1cc(-c2ccc(C)c(S(=O)(=O)NCc3ccc(Cl)cc3)c2)on1,-0.8%
CN(Cc1ccco1)c1ncnc2ccc(-c3cccnc3)cc12,-4.8%

# Carrying on.
SMILES,nsP2pro inh
CCOC(=O)c1ccc(NS(=O)(=O)c2ccc3[nH]c4c(c3c2)CCCCC4)cc1,-16.4%
O=C(c1ccccc1)N1CC2(CCNC2)OCc2ccccc21 (configuration not stated),-13.1%
CC(C)(C)OC(=O)N1CCN(c2ccc(NCc3cccc(-c4ccc(C#N)cc4)n3)cc2)CC1,3.7%
CC1CC2OC3(OC2C(C)(C)O)C1C1(C)CCC24CC25CCC(O[C@@H]2OC[C@@H](O)[C@H](O)[C@H]2O)C(C)(C)C5CC=C4C1(C)C3O (some centres not stated),-7.5%[10 µM]
CN1Cc2c(ccc3c2OCO3)[C@@H]2[C@H]1c1cc3c(cc1C[C@@H]2O)OCO3,?
Cc1cn2nc(C(=O)NCC(C)c3ccccc3)cc2c(N2CCSCC2)n1 (configuration not stated),-11.5%
CCOc1ccc(CCNC(=O)c2sc3nc4n(c(=O)c3c2C)CCCC4)cc1,-10.4%
COc1ccc(CCNC(=O)c2ccc(Cn3c(=O)c4ccccc4n(Cc4ccc(F)cc4Cl)c3=O)cc2)cc1OC,-17.1%
O=C(C1OC1/C=C/c1ccc2c(c1)OCO2)N1CCCCC1 (configuration not stated),?
COc1ccc(CNC(=O)[C@H]2CNC[C@H](C(=O)N3CCCC3)C2)c(F)c1F,-7.1%
COc1ccc2c(c1OC)C(=O)O[C@@H]2[C@H]1c2c(cc3c(c2OC)OCO3)CCN1C,1.3%
CCn1nnnc1NCc1ccc(C(C)C)cc1,-14.3%
CN[C@@H](C)C(=O)N[C@H](C(=O)N1CCC[C@H]1c1nc(C(=O)c2ccc(F)cc2)cs1)C1CCCCC1,2.8%
COc1ccc(C(=O)N2CCOCCNC(=O)CC2)c(OC)c1,-1.5%
C[S+](=O)([O-])N1C2CCC1CN(c1ccc(C(F)(F)F)cc1)C2,-23.8%
COCCNC(=S)N[C@H]1C[C@H]2C(=O)NC[C@@H](CCC(=O)NCc3ccccc3)N2C1,-7.0%[39.2 µM]
Cc1ccc(CN2C(=O)c3ccccc3Sc3ccc(C(=O)N4CCC5(CC4)OCCO5)cc32)cc1,-5.5%
C=C(COC(=O)C(C)C)C1Oc2cc(C(C)=O)ccc2C1OC(=O)C(C)C (configuration not stated),?
O=c1[nH]c(SCc2c(F)cccc2Cl)nc2c1CCCC2,-20.1%
CCC(C(=O)NC1CCCCC1)n1c(SCc2ccccc2F)nc2ccncc21 (configuration not stated),12.7%
CN(Cc1cccnc1)C1CCCc2ccccc21 (configuration not stated),-7.3%[39.2 µM]
CN(C(=O)CO)c1c(I)c(C(=O)NCC(O)CO)c(I)c(C(=O)NCC(O)CO)c1I (configuration not stated),-1.9%
O=C(O)c1ccc(-c2nc3ccncc3[nH]2)cc1,i
CCOc1ccc(S(=O)(=O)Nc2ccc3oc4c(c3c2)CC(C)CC4)cc1 (configuration not stated),-12.6%
CCOC(=O)CC(=O)CSc1nc2ccccc2c(=O)n1CCc1ccccc1,-10.8%
Cc1ccc(NC(=O)c2cnc(SCC(=O)Nc3cc(C)on3)n(C)c2=O)cc1,-5.1%

# Reformatted with bars between the fields: part of the list above
mol | nsP2pro inh
CC/C=C/C(O)C(O)C1=C(C)C(=O)C2(O1)C(=O)NC(OC)(C(=O)c1ccccc1)C2O (configuration not stated) | -2.8%[10 µM]
CC(C)(C)NCC(O)c1ccc(O)c(CO)c1 (configuration not stated) | -4.8%
CCCC(CCC)C(=O)OC1C[C@H]2CC[C@@H](C1)[N+]2(C)C (some centres not stated) | ?
O=C(C1OC1/C=C/c1ccc2c(c1)OCO2)N1CCCCC1 (configuration not stated) | ?
CC(C)(C)OC(=O)N1CCN(c2ccc(NCc3cccc(-c4ccc(C#N)cc4)n3)cc2)CC1 | 3.7%
